GLA inh pH 4.5 – alpha-galactosidase A (human) inhibition, pH 4.5; P06280; purified enzyme, 4-MU-alpha-Gal fluorescence, pH 4.5; activity change, negative = inhibition, % at 105 µM; 230,000 tested, under 10 active; AID 1467; inconclusive = small, poorly fitted or top-dose-only inhibition, or a rising curve; inactive = flat fitted curve, though single readings scatter; no compound was filed as active;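 further: 0% = full activity with enzyme and -100% = basal without enzyme; dose as in the result columns while the protocol names 77 µM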
Target sequence (P06280 whole entry, looked up): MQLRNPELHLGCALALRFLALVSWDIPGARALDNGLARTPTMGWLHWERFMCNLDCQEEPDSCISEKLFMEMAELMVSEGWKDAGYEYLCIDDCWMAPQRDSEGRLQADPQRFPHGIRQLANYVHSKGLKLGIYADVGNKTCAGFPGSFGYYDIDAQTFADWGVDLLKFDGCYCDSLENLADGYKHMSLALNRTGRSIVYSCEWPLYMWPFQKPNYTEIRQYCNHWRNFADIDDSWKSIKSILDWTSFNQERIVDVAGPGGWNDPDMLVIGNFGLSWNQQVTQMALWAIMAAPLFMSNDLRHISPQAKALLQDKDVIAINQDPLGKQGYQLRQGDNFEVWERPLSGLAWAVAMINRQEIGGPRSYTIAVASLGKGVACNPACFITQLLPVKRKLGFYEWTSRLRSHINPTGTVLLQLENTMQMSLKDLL
Rango release inh – inhibitors of RanGTP-induced Rango-importin beta complex dissociation | O95149+P62826 | Biochemical FRET Rango-importin beta, RanGTP-induced dissociation | Potency, µM (doses to about 46.1 µM), without a hit: at the highest dose activity change, negative = inhibition | actives 0.071% (n = 340,000) | AID 540253; active means falling FRET ratio curve, often poorly fitted, with flat reads before Ran was added; inconclusive means other falling curves, or compound fluorescence or quenching; inactive means flat or rising ratio curve;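 further: potency means the concentration at half of the fitted maximal effect; % of control where 0% means no effect; nearly all actives have a fitted effect of over 45% in size; -100% = wells without RanGTP and RCC1; the record marks most hits as doubtful in a second field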
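Quantitative HTS using a FRET biosensor: 0.1 uM Rango, 0.25 uM importin beta, 0.6 uM Ran, 2 mM GTP, 0.2 uM RCC1 final, PBS with DTT, Tween-20 and BSA. Post-read taken 45 min after Ran addition.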
miR-21 FLuc – raises the signal of a miR-21 reporter. HeLa miR-21 FLuc reporter, luciferase, 48 h. Potency, µM (highest dose often 38.3 µM), inactives show at the highest dose reporter change, positive = more light. 340,000 tested, under 10 active; active = well fitted rising curve with a large enough effect; inconclusive = small, poorly fitted or top-dose-only effect; inactive = no such curve, though single readings can be large or run the other way;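 further: % of control where 0% means no effect; miR-21 action dims this reporter so a rising signal means less miR-21 action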
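HeLa cells stably expressing CMV-driven firefly luciferase with a downstream miR-21 binding sequence, endogenously expressing miR-21, were treated with titrations (up to about 40uM final) for 48 hours at 37 degree Celsius. Luciferase luminescence was read after lysis.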
Rango-impB inh – prevents formation of the Rango-importin beta complex | Potency, µM (doses to about 92.2 µM), for the others: top-dose inhibition of complex formation | actives 0.031% (n = 340,000) | Q14974 | Rango CFP/YFP FRET sensor + importin beta, 45 min; active = rising FRET ratio curve, often small or poorly fitted; inconclusive = mostly compound fluorescence or quenching in the first reads; inactive = flat curves in all reads;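 further: potency means the concentration at half of the fitted maximal effect; 0% = DMSO wells and 100% = buffer wells lacking importin beta; nearly all actives have a fitted effect of over 15% in size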
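FRET biosensor (snurportin 1 IBB flanked by EYFP and cerulean), 50 nM, with compound 5 min, then 0.125 microM importin beta in PBS, 1 mM DTT, 0.02% Tween-20, 0.1% BSA. CFP/YFP ratio read after 45 min at room temperature; pre-read flags interference.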
An asterisk follows results filed as active; ? = inconclusive; nt = no result given; & = joins results of further samples. A portion of the library; count on the stated rates, not on these rows.

Sequence of screens – Rango-impB inh, miR-21 FLuc, Rango release inh, GLA inh pH 4.5
CN(c1cccc(Cl)c1)S(=O)(=O)c1cccc(C(=O)NC2=NCCS2)c1
  0.6%, 16%, 10%, -8
COc1cccc(CN(CC(=O)NC2CCCC2)C(=O)CCC(=O)Nc2cc(C)on2)c1
  -1.3%, -2%, 22%, 3
CN(C)C(=O)C12CCC(C)(c3nc4ccccc4nc31)C2(C)C (centres undefined)
  2.6%, -5%, 2%, 7
CC(=O)Nc1ccc(C(=O)OCc2ccc(F)cc2)cc1
  2.6%, -26%, -5%, -8
COC(=O)c1sc(C(F)(F)F)c(-c2ccccc2)c1S(=O)(=O)N(C)C
  -0.4%, 0%, -8%, -18
O=C(Nc1ccnn1C1CCN(CCCC2CCCC2)CC1)c1ccccc1
  -1.1%, 5%, 2%, nt
Cc1cc(C(=O)COC(=O)c2n[nH]c(=O)c3ccccc23)c(C)n1C(C)C
  -0.2%, nt, 3%, nt
O=C(CSc1nc(=O)n(CCCN2CCOCC2)c2c1CCCC2)Nc1cccc(F)c1
  2.9%, nt, -11%, nt
COc1ccc(Cc2nnc(SCC(=O)Nc3ccc(C)c(Cl)c3)[nH]c2=O)cc1
  3.6%, nt, ?, nt
COc1ccc(S(=O)(=O)Cc2ccc(C(=O)NC3CCCCCC3)o2)cc1
  6.7%, -4%, -10%, nt
COC(=O)C[C@H]1c2cc(C(F)(F)F)ccc2S(=O)(=O)N1Cc1ccc(OC)cc1
  -1.0%, nt, 0%, nt
O=C(O)C(Cc1c[nH]c2ccccc12)NS(=O)(=O)c1ccccc1 (centres undefined)
  -0.9%, 0%, -5%, 1
Cc1cc(C)c(S(=O)(=O)N2CCN(C3CC(=O)N(c4ccccc4Cl)C3=O)CC2)c(C)c1 (centres undefined)
  -0.7%, nt, -21%, nt
COc1ccc(F)cc1C(=O)C1CCCN(Cc2cnc(N3CCCC3)s2)C1 (centres undefined)
  -0.6%, 5%, 4%, 0
COc1cc(/C=C/C(=O)OCC(=O)NCCc2ccc(F)cc2)ccc1OC(F)F
  5.9%, nt, -10%, nt

Remaining list, next part.
Sequence of screens – Rango-impB inh, miR-21 FLuc, Rango release inh, GLA inh pH 4.5
O=C(c1nn(-c2ccccc2)c(=O)c2ccccc12)N1CCN(c2ccccn2)CC1
  1.4%, -2%, 1%, -2
CC(C)CCNC(=O)c1ccc2c(c1)N(C)C(=O)c1ccccc1S2
  3.7%, -3%&-9%, 13%, nt
O=C/C=C/c1c(-c2ccccc2)cc2oc3ccccc3cc1-2
  ?, 11%, -19%, nt
CS(=O)(=O)NCCCNc1c(Cl)cccc1[N+](=O)[O-]
  3.0%, -2%, -7%, -2
Cc1cc(=O)[nH]c(NCc2ccc(Cl)cc2)n1
  0.2%, -2%, -1%, nt
Cc1cccc(C)c1NC(=O)CSc1nnnn1C
  -1.1%, 1%, -5%, 8
O=C(O)c1ccccc1S(=O)(=O)Cc1ccccc1
  0.9%, -10%, 6%, -2
O=c1cc(-c2ccc(O)c(O)c2)oc2ccc3ccccc3c12
  -1.4%, nt, -7%, nt
COc1ccc2sc(-c3ccc(N(C)C)cc3)c(C#CCCO)c2c1
  ?, nt, ?, nt
Cc1cc(-c2cc(N)n(-c3ccccc3)n2)c(C)n1C1CCCC1
  -3.2%, -35%, -13%, 4
COc1ccccc1N(C)S(=O)(=O)c1ccc(C(=O)NC2CCCCC2)cc1
  -5.2%, nt, 1%, nt
CCOc1ccccc1NC(=O)C1CCN(c2nc(-c3ccc(OC)cc3)no2)CC1
  -5.2%, -1%, -9%, nt
COc1ccc2[nH]c(=O)c(CN(Cc3ccco3)C(c3nnnn3Cc3ccccc3)C(C)C)cc2c1 (centres undefined)
  ?, ?, -11%, -14
CCOc1ccccc1N1CCN(C(=O)c2ccc3[nH]c(C)c(C)c3c2)CC1
  0.0%, 12%, 13%, nt
CN(CC(=O)Nc1ccc(F)cc1)C(=O)COC(=O)CCN1C(=O)C2CC=CCC2C1=O (centres undefined)
  0.5%, -1%, -3%, nt

(more compounds)
Sequence of screens – Rango-impB inh, miR-21 FLuc, Rango release inh, GLA inh pH 4.5
COc1ccc2c(c1)CCc1c(C(=O)Nc3ccc(OC)c(OC)c3)noc1-2
  ?, -10%, -18%, -1
CCCc1nn2c(=O)cc(CSCC(=O)Nc3ccccc3)nc2s1
  -3.1%, -4%, 7%, nt
CC(C)CCNC(=O)c1cccnc1Sc1ccccc1
  1.3%, -15%, 53%, 3
COc1ccc(NC(C)=O)cc1S(=O)(=O)N1CCc2ccccc21
  -1.6%, -2%, -1%, -3
Cc1cc(C)c2oc(-c3cccc(N)c3)nc2c1
  4.3%, -57%, -13%, nt
CCCn1nnnc1SCC(=O)c1ccc2c(c1)OCCO2
  0.3%, -23%, -12%, 1
CC1([N+](=O)[O-])COC2(OC1)C(=O)Nc1ccccc12 (centres undefined)
  -0.4%, 1%, -1%, nt
CCCCNc1c(-c2ccc(SC(C)CC)c(OC)c2)nc2ccc(Cl)cn12 (centres undefined)
  ?, nt, ?, nt
Cc1ccnc2nc(C(=O)Nc3nc(-c4ccccn4)cs3)nn12
  -6.8%, -15%, 7%, 3
COC(=O)c1c(-c2c(Cl)cccc2Cl)noc1NC(=O)N(C)C
  4.0%, 2%, 1%, -3
Cc1cccc(C)c1OCc1cc(C(=O)N(C)Cc2cc(C3CC3)n[nH]2)no1
  -1.1%, -39%, 7%, nt
Cc1ccc2cc(CCNC(=O)C3CCCCC3)c(=O)[nH]c2c1C
  2.4%, 0%, -5%, nt
CC(C)n1cc(C#N)c(N)n1
  2.9%, nt, 8%, nt
CCOc1cc(C2C(C(C)=O)=C(O)C(=O)N2CCc2c[nH]c3ccccc23)ccc1O (centres undefined)
  4.3%, -10%, 1%, 6
CCOC(=O)C1CCCN(Cc2ccccc2F)C1 (centres undefined)
  5.0%, -4%, -7%, 1

(more compounds)
Sequence of screens – Rango-impB inh, miR-21 FLuc, Rango release inh, GLA inh pH 4.5
COc1cc(C(=O)OCC(=O)N2CCCC2)cc(OC)c1OC
  -3.0%, -1%, -14%, -1
O=C(CSc1nnc(SCc2ccc(Cl)cc2)s1)N/N=C/c1ccccc1Cl
  6.4%, -11%, -2%, -3
COc1ccc(CCNC(=O)CC2SC(=NCc3ccccc3)NC2=O)cc1 (centres undefined)
  -1.9%, 0%, 12%, 10
Cc1ccc(OCC(=O)NCCNC(=O)c2ccco2)cc1
  0.4%, -1%, 49%, nt
CCOc1ccc(Nc2cc(C)nc(N3CCOCC3)n2)cc1
  0.1%, -4%, -6%, -3
Cc1cc(C)c2c(c1)OC(O)(C(F)F)CC2=O (centres undefined)
  -1.5%, -4%, -2%, 20
O=C(NCCN1CCN(C(=O)c2c(F)cccc2F)CC1)C(=O)Nc1ccc(Cl)cc1
  3.7%, 2%, -7%, nt
COc1ccc(C2NS(=O)(=O)N=C2N)cc1 (centres undefined)
  -2.4%, -2%, -17%, 7
O=C(CC1Nc2ccccc2NC1=O)NCCc1ccccc1 (centres undefined)
  ?, -5%, -21%, 3
Cc1cc(NC(=O)C(C)SCC(=O)O)no1 (centres undefined)
  1.7%, -1%, 7%, 0
Cc1ccc(O)c(NC(=S)NC(=O)Cc2ccc(Cl)cc2)c1
  -3.3%, -8%, -12%, nt
O=C(Cc1ccc(S(=O)(=O)N2CCOCC2)s1)Nc1ccc(Br)c(C(F)(F)F)c1
  -1.0%, nt, -11%, nt
COc1ccc(C2(C)NC(=O)N(CC(=O)NC3CC3)C2=O)cc1 (centres undefined)
  -1.9%, nt, 4%, nt
CC(C)(C)CC(C)(C)N=C1NS(=O)(=O)c2cc([N+](=O)[O-])ccc21
  0.0%, 5%, 9%, -17
C[C@]1(C2CCCC2)Cc2cc(OCC(=O)O)c(Cl)c(Cl)c2C1=O
  -0.8%, nt, 1%, nt

Further compounds:
Sequence of screens – Rango-impB inh, miR-21 FLuc, Rango release inh, GLA inh pH 4.5
Cc1nn(Cc2ccccc2)c(C)c1NC(=O)c1ccc([N+](=O)[O-])cc1[N+](=O)[O-]
  -2.1%, 15%, 3%, 1
CN(/C(=N/S(=O)(=O)c1ccccc1)c1ccccc1)S(=O)(=O)c1ccccc1
  -0.3%, -1%, 12%, 7
CC(C)(C)c1ccc(C(=O)C=[N+]=[N-])cc1
  -3.7%, 1%, -5%, -1
COc1ccc(-n2nc(C(=O)NCC(=O)N3CCC(C)CC3)c3ccccc3c2=O)cc1
  0.1%, 0%, 3%, nt
CN=C1SC(CC(=O)NCCc2ccc(OC)c(OC)c2)C(=O)N1C (centres undefined)
  2.1%&-1.8%, 0%, -2%&2%, 6
COC(=O)C(F)(Sc1c(C)n(C)n(-c2ccccc2)c1=O)C(F)(F)F (centres undefined)
  0.6%, -3%, 4%, -11
CCOC(=O)C1CC2=C(CCCC2=O)N(Cc2ccccc2)C1=O (centres undefined)
  -1.6%, nt, 9%, nt
COCc1cc(C)n(CC(=O)Nc2cc(C)cc(C)c2)c(=O)c1C#N
  2.4%, 3%, 1%, -2
COc1ccccc1CNC(=O)COC(=O)Cc1ccc(F)cc1
  13%, nt, 29%, nt
CC1CN(S(=O)(=O)c2cccc(C(=O)NCC(c3cccs3)N3CCOCC3)c2)CC(C)O1 (centres undefined)
  -2.6%, nt, -4%, nt
Cc1ccc(S(=O)(=O)/N=C(/Nc2c(C)n(C)n(-c3ccccc3)c2=O)c2ccccc2)cc1
  2.5%, -2%, -7%, 3
CCOC(=O)N1CCN(C(=O)CS(=O)(=O)c2cn(Cc3ccccc3Cl)c3ccccc23)CC1
  -0.1%, -1%, -2%, -8
S=C(NCCc1ccccc1)N1CCN(C23CC4CC(CC(C4)C2)C3)CC1
  -0.1%, 1%, -5%, -10
N#CC1(NC(=O)COC(=O)c2cc(=O)[nH]c3ccccc23)CCCCC1
  4.1%, nt, -1%, nt
CC(CO)NS(=O)(=O)c1ccc(Br)cc1F (centres undefined)
  4.1%, nt, 25%, nt

Among those listed so far, 2 contain a tert-butyl group:
Sequence of screens – Rango-impB inh, miR-21 FLuc, Rango release inh, GLA inh pH 4.5
CC(C)(C)CC(C)(C)N=C1NS(=O)(=O)c2cc([N+](=O)[O-])ccc21
  0.0%, 5%, 9%, -17
CC(C)(C)c1ccc(C(=O)C=[N+]=[N-])cc1
  -3.7%, 1%, -5%, -1

Continued.
Sequence of screens – Rango-impB inh, miR-21 FLuc, Rango release inh, GLA inh pH 4.5
O=C(CCC1CCN(C(=O)c2cncs2)CC1)Nc1ccccc1
  1.6%, -1%, -8%, nt
N#Cc1ccc(/C=N/NC(=S)Nc2ccc(S(=O)(=O)N3CCOCC3)cc2)cc1
  -0.6%, -3%, -1%, -5
COc1cc(C(=O)NCC2CCCO2)cc(Br)c1OCc1ccccc1 (centres undefined)
  8.0%, nt, 41%, nt
CCCN1CCc2c(sc(NC(=O)c3ccc(S(=O)(=O)N(C)c4ccccc4)cc3)c2C(N)=O)C1
  ?, 3%, ?, nt
CCCCCn1nc(-c2ccccc2)c2nc3ccccc3nc21
  ?, -1%, ?, -2
CCOC(=O)Cc1cc(-c2ccc(F)cc2)nc2ccc3ccccc3c12
  2.4%, -15%, 7%, 7
COc1cccc(-c2nnn(CC(=O)N(CC(C)C)C3CCS(=O)(=O)C3)n2)c1 (centres undefined)
  -4.0%, nt, 11%, nt
CCc1ccc(N2C(=O)C(Cl)=C(N3CCOCC3)C2=O)cc1
  -0.1%, 16%, 0%, 4
Cn1cccc1C(=O)C(=O)Nc1cc(Cl)cc(Cl)c1
  ?, -40%, -11%, -15
Cc1cc(C)cc(OCC(=O)NNC(=O)c2cc3ccccc3o2)c1
  -1.1%, -4%, 13%, 6
CC(=O)Nc1ccc(S(=O)(=O)NCC2CCC(C(=O)NCCCN3CCCC3=O)CC2)cc1 (centres undefined)
  0.0%, -5%, 31%, -5
COc1ccc2nc(NC(=O)CSc3nc(C)cc(=O)[nH]3)sc2c1
  -1.6%, -26%, -16%, -13
Cc1ccc(S(=O)(=O)N2CCCCC2)cc1NC(=O)COC(=O)Cc1cccc2ccccc12
  2.1%, -7%, -2%, -13
COc1cc(NC(=O)c2ccc(-c3cccc(F)c3)o2)ccc1NC(=O)c1ccccc1Cl
  ?, nt, 1%, nt
COc1cccc(CN2CC(C(=O)NCc3ccc(C)o3)CCC2=O)c1 (centres undefined)
  -1.0%, 0%, 5%, nt
